NPYLR7 ag: mosquito NPYLR7 agonism | HEK293T NPYLR7/Galpha15, GCaMP6s calcium fluorescence | activation, % at 10 µM | 270,000 compounds, 0.15% hits | AID 1259423; in the data active = activation above about 40%;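 also: 0% = vehicle and 100% = reference agonist at the receptor; some compounds past the cut are filed as inactive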
NPYLR7 ag max-min: also measured in NPYLR7 ag; calls as there; activation, %; measured here: Max-Min RFU normalised activation; some inactives read as strong as hits;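 span of the calcium signal over five minutes; 0% = vehicle and 100% = native peptide agonist; compound fluorescence can raise it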
* hit, by the source's call; & = joins results of further samples. Only part of the results is shown, so the mix of outcomes need not match the whole.

Structure | NPYLR7 ag | NPYLR7 ag max-min
CC(C)(C)CNC(=O)C1(C)CCN1C(=O)CCc1ccccc1 (stereo unspecified) | 10 | 8
Cc1cccc(S(=O)(=O)NC(=O)C2(C)CCN2C(=O)C/C=C/c2ccccc2)c1 (stereo unspecified) | -2 | -1
c1cc(-c2nc(CCNC3CCSC3)cs2)ccn1 (stereo unspecified) | 5 | 3
O=c1c(N=Nc2nc3ccccc3s2)c(-c2ccccc2)[nH]n1-c1ccccc1 | 8 | 7
COc1ccc(C(=O)Cn2nc(-c3ccco3)c3sc(N4CCOCC4)nc3c2=O)cc1OC | -4 | -7
CC1(Cc2ccc(F)cc2)C(=O)Nc2ccc(-c3cccnc3)cc21 (stereo unspecified) | 3 | 1
CCOc1ccc(-n2c(SCC(=O)OCc3ccccc3)nc3c(c2=O)SCC3)cc1 | -1 | 30
CCOC(=O)N1CCC(NC(=O)c2csc(-c3cc4ccccc4[nH]3)n2)CC1 | 4 | 3
CCN(Cc1noc(C)n1)Cc1cnc(-c2ccccc2C)s1 | 0 | -4
CCN(CC)C(=O)Oc1ccc2c(ccn2Cc2ccccc2C#N)c1-c1cc(C)cc(C)c1 | 4 | 7

By substructure, those above with a carbonyl joined to an NH by a bond outside any ring.
Structure | NPYLR7 ag | NPYLR7 ag max-min
CC(C)(C)CNC(=O)C1(C)CCN1C(=O)CCc1ccccc1 (stereo unspecified) | 10 | 8
Cc1cccc(S(=O)(=O)NC(=O)C2(C)CCN2C(=O)C/C=C/c2ccccc2)c1 (stereo unspecified) | -2 | -1
CCOC(=O)N1CCC(NC(=O)c2csc(-c3cc4ccccc4[nH]3)n2)CC1 | 4 | 3

Further results
Structure | NPYLR7 ag | NPYLR7 ag max-min
COc1ccc(/C=C2\C=C(c3ccccc3)N(c3ccc(C(C)(C)C)cc3)C2=O)cc1Br | -1 | 5
O=C1Oc2ccccc2C2(O)C3CCCC3C12 (stereo unspecified) | 9 | 5
Cc1cc(C(C)(C)C)cc(C)c1CS(=O)(=O)CCn1cccn1 | 10 | 9
Clc1ccc(-n2cccc2CN2CCc3c([nH]c4ccccc34)C2c2ccccn2)nc1 (stereo unspecified) | 10&7 | 9&0
CC1(C)Cc2c(c(N3CCOCC3)nc3sc4c(ncn5cnnc45)c23)CO1 | -3 | -4
O=C(Nc1ccc(O)cc1)c1ccc(F)c(S(=O)(=O)N2CCOCC2)c1 | -5 | -12
COc1cccc(Nc2nc(C(N)C3CCCCC3)cs2)n1 (stereo unspecified) | -3 | -7
Cc1cc(C)c2c(c1)CC(C)(C)C(=O)N(CCNc1ccc([N+](=O)[O-])cn1)C2=O | -6 | -13
CC(C)C(=O)N1CCN(c2nc(-c3ccsc3)nc3ccccc23)CC1 | -7 | 13
CN(C)CCCN=Cc1c(-c2ccccc2)[nH]n(-c2ccc([N+](=O)[O-])cc2)c1=O | -14 | -16
O=C(CN1CCCCC1)N1N=C(c2cccs2)CC1c1cccs1 (stereo unspecified) | 2 | 0
CCc1c(C)nn(-c2ccc(C(=O)NCCc3cccc(Cl)c3)cc2)c1C | -8 | -8
COCCN1C(=O)[C@]2(C)[C@H](c3ccccc31)[C@@H](C(N)=O)CN2C(=O)N(C)C | 18 | 19
CC1(C)CC(=O)C2=C(C1)N=C(SCC(=O)c1ccccc1)C(C#N)C2c1ccc(Br)cc1 (stereo unspecified) | 7 | 1
CCOc1cccc2cc(-c3nnc(Nc4ccc(Cl)cc4Cl)s3)c(=O)oc12 | -4 | -13
COCC(=O)Nc1ccc(Oc2ccc(C)c(C)c2)nc1 | 0 | -1
CCC(C)C1NC2(CCN(C(=O)C3CCCC3)CC2)N(CCOC)C1=O (stereo unspecified) | 3 | 2
CSc1nnc(/C=C/c2ccco2)c(=O)n1N | -6 | -6
O=c1c2cc(-c3cccs3)nn2ccn1Cc1nc(-c2cccc(C(F)(F)F)c2)no1 | -3 | -5
COCCCNc1nc2nonc2nc1N1CCCC(OC)C1 (stereo unspecified) | 3 | 0

Next section, overlapping the part above by seven compounds.
Structure | NPYLR7 ag | NPYLR7 ag max-min
CC1(C)CC(=O)C2=C(C1)N=C(SCC(=O)c1ccccc1)C(C#N)C2c1ccc(Br)cc1 (stereo unspecified) | 7 | 1
CCOc1cccc2cc(-c3nnc(Nc4ccc(Cl)cc4Cl)s3)c(=O)oc12 | -4 | -13
COCC(=O)Nc1ccc(Oc2ccc(C)c(C)c2)nc1 | 0 | -1
CCC(C)C1NC2(CCN(C(=O)C3CCCC3)CC2)N(CCOC)C1=O (stereo unspecified) | 3 | 2
CSc1nnc(/C=C/c2ccco2)c(=O)n1N | -6 | -6
O=c1c2cc(-c3cccs3)nn2ccn1Cc1nc(-c2cccc(C(F)(F)F)c2)no1 | -3 | -5
COCCCNc1nc2nonc2nc1N1CCCC(OC)C1 (stereo unspecified) | 3 | 0
CC(C)(C)c1nnc2sc(SCC(=O)NCc3ccco3)nn2c1=O | 3 | 7
Cc1cccc(Cn2c(C(=O)N3CCN(C(=O)C(Cl)c4ccccc4)C(C)C3)cc3ccoc32)c1 (stereo unspecified) | 0 | 4
COc1cccc(CN(C)C(=O)Nc2cc(C)c(C)c3ncccc23)c1 | -3 | -2
Cc1ccc(C)c(S(=O)(=O)N2CCCC(Cn3cc(CCO)nn3)C2)c1 (stereo unspecified) | -3 | 4
COc1cc(CN2CCN(Cc3cccc(C)c3)C(=O)C2)cc(Cl)c1O | 12 | -2
CCc1cc(N2CCN(C(=O)c3cc(F)c(F)cc3F)CC2)n2ncnc2n1 | 0 | -3
O=S(=O)(c1ccc2c(c1)OCCO2)N1CCN(c2ccc(Cl)c(Cl)c2)CC1 | 9 | 5
O=C(c1ccc2c(c1)OCO2)c1cc2ccc(O)cc2oc1=O | 6 | 6
CNc1cccc(-c2cc(OC)c(OC)c(OC)c2)n1 | 4 | 1
CCN1CCN(C(=O)CCN(Cc2ccco2)c2nc(-c3cccs3)nc3ccccc23)CC1 | 28 | 35
CC(C)CN(Cc1cnn(C)c1)Cc1ccc(C2CCCO2)s1 (stereo unspecified) | -11 | -12
Cc1cccc(C(=O)N2CCCC2)c1NC(=O)N(C)C(C)c1ccccc1 (stereo unspecified) | -2&1 | 4&-1
CCCc1nc(N2CCN(C(=O)Nc3ccc(Cl)cc3)CC2)c2c(-c3cccc(C(F)(F)F)c3)noc2n1 | 18 | 4
Fc1cccc(CC2CN(Cc3cccs3)CCO2)c1 (stereo unspecified) | -20 | -23
COc1ccc(NC(=O)N2CCc3c(cnn3-c3ccc(Cl)cc3Cl)C2)cc1 | -1 | 17
CCOC(=O)c1c(NC(=O)c2ccco2)sc(C(=O)N2CCCCC2)c1C | -6 | -11
CN(C)c1nc2c(c(=O)[nH]1)CCN(C(=O)c1ccccc1-c1ncc[nH]1)C2 | 28 | 12
CC(C)(C)C(=O)Nc1nnc(SCc2ccc(Cl)cc2Cl)s1 | 1 | -1
O=C(Cn1c(=O)oc2ccccc21)OCCCn1c(=O)[nH]c2ccccc21 | 2 | 3
CCCCCCCn1c(C)cn2c3c(=O)n(C)c(=O)n(C)c3nc12 | 2 | 10
Cc1ccc(CN(C)C(=O)c2cc(Br)c[nH]2)o1 | 0 | 1
CC(c1nc(C(C)(C)C)no1)S(=O)(=O)Cc1cn2cc(Br)ccc2n1 (stereo unspecified) | -1 | 7
CCCCn1c(N2CCN(CC(N)=O)CC2)nc2c1c(=O)[nH]c(=O)n2C | 2 | -1
Cc1cccc(Oc2c(CN(CC(O)COc3ccccc3C)CC3CC3)c(C)nn2-c2ccccc2)c1 (stereo unspecified) | 13 | 12
CCOc1ccc(C(=O)Nc2c(C)nc3ccccn3c2=O)cc1 | 5 | 3
O=S(=O)(/C=C/c1ccccc1)NC1CS(=O)(=O)c2ccccc21 (stereo unspecified) | -3 | -5
CCOCC(=O)Nc1scc2c(C(=O)OCC)nn(-c3ccc(C)cc3)c(=O)c12 | 2 | -1
COc1ccc(C2=Nc3ncnn3C(c3ccc(Cl)cc3Cl)C2)cc1 (stereo unspecified) | 1 | -2
Nc1c(C(=O)O)cc(Br)c2c1C(=O)c1ccccc1C2=O | 12 | 10
Cc1cccc(S(=O)(=O)NCCOc2ccc(-c3ccc(F)cc3)nn2)c1 | -4 | -6
C=C1C=C(C)Nc2nnc(-c3n[nH]c(CCc4ccccc4)n3)n21 | -3 | 9
CCCCCCC(C)=NNc1ccc([N+](=O)[O-])cc1 | -5 | -7
CCN(Cc1ccccc1)C(=O)CCc1nnc(C(OC)c2ccccc2)o1 (stereo unspecified) | -1 | -7
CC(Oc1ccccc1C(N)=O)c1ccccc1Cl (stereo unspecified) | -3 | -4
c1ccc(CCCCNc2nc(-c3ccncc3)nc3c2CNC3)cc1 | 5 | 2
Cc1nn(C)c(Cl)c1S(=O)(=O)NC(=O)C1(C)CCN1C(=O)Cc1ccccc1 (stereo unspecified) | 0 | 0
COc1ccc(OC)c(S(=O)(=O)NC/C=C(\C)CCC=C(C)C)c1 | -5 | -11
CCOC(C)c1nc(CSc2nnnn2C2CCCC2)cs1 (stereo unspecified) | 9 | 5
CC(NC(=O)/C=C/c1ccccc1)C(=O)N(C)C(C)C1CC1 (stereo unspecified) | 6 | 5
Cn1ccnc1CN1CCN(c2ccc(-c3nc(C4CC4)no3)cn2)CC1 | 6 | 4

Pulled by compound from the entries so far, 7 records:
Structure | NPYLR7 ag | NPYLR7 ag max-min
COc1ccc(OC)c(S(=O)(=O)NC/C=C(\C)CCC=C(C)C)c1 | -5 | -11
CCCCCCC(C)=NNc1ccc([N+](=O)[O-])cc1 | -5 | -7
Cc1nn(C)c(Cl)c1S(=O)(=O)NC(=O)C1(C)CCN1C(=O)Cc1ccccc1 (stereo unspecified) | 0 | 0
c1ccc(CCCCNc2nc(-c3ccncc3)nc3c2CNC3)cc1 | 5 | 2
CC(Oc1ccccc1C(N)=O)c1ccccc1Cl (stereo unspecified) | -3 | -4
CCN(Cc1ccccc1)C(=O)CCc1nnc(C(OC)c2ccccc2)o1 (stereo unspecified) | -1 | -7
Cn1ccnc1CN1CCN(c2ccc(-c3nc(C4CC4)no3)cn2)CC1 | 6 | 4

(next part)
Structure | NPYLR7 ag | NPYLR7 ag max-min
Cn1cccc1/C=C1\C(=O)NC(=O)c2ccccc21 | 6 | -3
CCS(=O)(=O)Oc1cc(CN(Cc2ccc(F)cc2)C(=O)NC(C)(C)C)ccc1OC | 8 | 5
Cc1c(Br)c([N+](=O)[O-])nn1CC(=O)N1CCCCC1C (stereo unspecified) | 23 | 19
COc1ccc2nc(Cn3cnc4ccc(F)cc4c3=O)[nH]c2c1 | -1 | 2
CCn1c(=NC(=O)c2ccc(C(C)=O)cc2)sc2cc(Br)ccc21 | -16 | -20
CCCCNC(=O)N1CCN(c2nc(-c3cccc(C(F)(F)F)c3)nc(C)c2Cc2ccccc2)CC1 | 21 | 26
O=C(NCc1cccnc1N1CCc2ccccc2C1)c1cnn2cccnc12 | 8 | 7
CC1=CC(=O)C(N(C)C2CCS(=O)(=O)C2)=CC1=O (stereo unspecified) | -13 | -19
O=C(NCC(O)COCC1CC1)c1cc(Cl)nc(N2CCCC2)c1 (stereo unspecified) | 3 | 1
CN(C)S(=O)(=O)N1CCC(Oc2cccc(C(=O)NCc3cccc(F)c3)c2)CC1 | -3 | -7
COc1ccc(Cc2nc3ccc(C(=O)NCCc4ccncc4)cc3o2)cc1OC | 3 | 1
Cc1c(C(=O)OC(C)C(=O)NC(C)(C#N)C(C)C)sc2cccc(F)c12 (stereo unspecified) | 10 | 15
Cc1ccc(C2(O)CCN(C(=O)c3n[nH]c4c3CCC4)CC2)nc1 | 8 | 5
CCOC(=O)C1=C(C)NC2=C(C(=O)CCC2)C1c1ccccc1Br (stereo unspecified) | 4 | 2
Cc1ccsc1CN(C)C(=O)Nc1ccccc1C(C)C | 1 | 0
O=S(=O)(Oc1ccccc1F)C1=Cc2ccccc2CC1 | 14 | 11
CCc1noc(C)c1C(=O)NCc1cccnc1-n1cnc2ccccc21 | 3 | 1
Cc1[nH]c2nc3c(c(=O)n(Cc4ccc(Cl)c(Cl)c4)c(=O)n3C)n2c1C | 0 | 1
C=C(N/N=C1/NC(=O)CS1)c1ccccc1 | 6 | 2
COc1ccc(Oc2cnc(N)nc2-c2ccc(OCc3ccccc3)cc2O)cc1 | 0 | -2
